A1 apoptosis 2 – A1 inhibition read as caspase activation; caspase activation, % (no concentration beside the values); MEF A1-2A-BIM cells, caspase-Glo luminescence, 3 h; percent of clofoctol response, DMSO zero; AID 2465; 24,000 tested, under 10 active; in the data active = caspase activation above about 5.9%;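 also: wells of about 30 µL received 50 nL stock; the first replicate is given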
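Evaluation: Caspase-3/7 activity from luminescence increase | Assay system: A1-2A-BIM mouse embryonic fibroblasts | Quantity: 2500 MEF cells/well | Medium: RPMI-1640 plus 10% FBS | Detection: Caspase-Glo 3/7 luminescence, 1 h at room temperature | Dosing: 50 nL compound per well, pinned | Timing: Cells settled overnight, compound exposure 3 h at 37 °C, 5% CO2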
Active calls of the source: *. Some of the compounds tested; rates above refer to the full screens.

SMILES	A1 apoptosis 2
C[C@H](CO)N1C[C@H](C)[C@H](CN(C)C(=O)Nc2ccc(F)cc2)Oc2ccc(NC(=O)C3CC3)cc2CC1=O	-0.6
C[C@@H]1CN([C@H](C)CO)C(=O)Cc2cc(NS(C)(=O)=O)ccc2O[C@@H]1CN(C)CC1CC1	-0.5
C[C@H]1CN([C@@H](C)CO)C(=O)Cc2cc(NC(=O)CCN3CCOCC3)ccc2O[C@H]1CN(C)Cc1ccc(-c2ccccc2)cc1	2.0
C[C@H]1CN([C@@H](C)CO)C(=O)c2cccc(NS(C)(=O)=O)c2O[C@@H]1CN(C)C	0.1
C[C@@H]1CN([C@@H](C)CO)C(=O)c2cc(NC(=O)Nc3ccc4c(c3)OCO4)ccc2O[C@H]1CN(C)Cc1ccc(C(=O)O)cc1	0.4
Cc1ccc(S(=O)(=O)Nc2ccc3c(c2)CC(=O)N([C@H](C)CO)C[C@H](C)[C@@H](CN(C)Cc2ccc(Oc4ccccc4)cc2)O3)cc1	-2.1
C[C@@H]1CCCCO[C@H](CN(C)S(=O)(=O)c2cccs2)[C@H](C)CN([C@H](C)CO)C(=O)c2cc(NS(=O)(=O)c3ccccc3)ccc2O1	-0.5
C[C@@H]1CN([C@H](C)CO)C(=O)c2cccc(NC(=O)c3ccc(-c4nccs4)cc3)c2O[C@@H]1CN(C)C(=O)Nc1ccc(C(F)(F)F)cc1	-0.8
COc1ccc(NC(=O)N(C)C[C@@H]2OCCCC[C@H](C)Oc3ccc(NS(=O)(=O)c4ccc(F)cc4)cc3C(=O)N([C@@H](C)CO)C[C@@H]2C)cc1	0.4
C[C@H]1CCCCO[C@@H](CN(C)C(=O)c2ccccc2)[C@@H](C)CN([C@@H](C)CO)C(=O)c2cc(NS(=O)(=O)c3cn(C)cn3)ccc2O1	2.5
COc1ccc(NC(=O)Nc2cccc3c2O[C@@H](CN(C)C(=O)Nc2c(C)noc2C)[C@@H](C)CN([C@@H](C)CO)C3=O)cc1	-0.9
C[C@@H]1CN([C@H](C)CO)C(=O)Cc2cc(NC(=O)Nc3ccccc3)ccc2O[C@H]1CN(C)C(=O)Nc1ccc(F)cc1	0.2

Another view of two compounds above.
Molecule: C[C@@H]1CN([C@H](C)CO)C(=O)Cc2cc(NC(=O)Nc3ccccc3)ccc2O[C@H]1CN(C)C(=O)Nc1ccc(F)cc1
  A1 apoptosis 2 = 0.2

Molecule: C[C@H]1CCCCO[C@@H](CN(C)C(=O)c2ccccc2)[C@@H](C)CN([C@@H](C)CO)C(=O)c2cc(NS(=O)(=O)c3cn(C)cn3)ccc2O1
  A1 apoptosis 2 = 2.5

Remaining list, next part
SMILES	A1 apoptosis 2
CN1C(=O)[C@@H]2[C@@H](CC(COc3ccccc3)=C3[C@@H](CCc4ccccc4)OB(O)C[C@@H]32)C1=O	-0.1
CC(C)NC(=O)Nc1ccc2c(c1)C(=O)N([C@@H](C)CO)C[C@@H](C)[C@H](CN(C)C(=O)Cc1ccccc1)OCCCC[C@@H](C)O2	-0.9
C[C@H](CO)N1C[C@H](C)[C@H](CN(C)S(=O)(=O)c2ccc(F)cc2)Oc2c(NC(=O)Nc3ccc(C(F)(F)F)cc3)cccc2C1=O	0.2
COC(=O)N(C)C[C@@H]1OCc2cn(nn2)CCCC(=O)N([C@H](C)CO)C[C@@H]1C	-0.1
C[C@H](CO)N1C[C@H](C)[C@H](CN(C)C(=O)Nc2cccc3ccccc23)Oc2ncc(Br)cc2C1=O	-0.6
C[C@@H]1CCCCO[C@@H](CN(C)C(=O)Nc2ccccc2)[C@@H](C)CN([C@@H](C)CO)C(=O)c2cc(NC(=O)C3CCCCC3)ccc2O1	-0.3
Cc1ccc(S(=O)(=O)N(C)C[C@H]2Oc3ccc(NC(=O)Nc4ccccc4)cc3CC(=O)N([C@H](C)CO)C[C@@H]2C)cc1	1.2
CC(C)NC(=O)Nc1ccc2c(c1)C(=O)N([C@@H](C)CO)C[C@H](C)[C@@H](CN(C)C(=O)NC(C)C)OCCCC[C@H](C)O2	0.7
C[C@@H]1CN([C@H](C)CO)C(=O)c2cc(NC(=O)Cc3cn(C)c4ccccc34)ccc2O[C@@H]1CN(C)CC1CCCCC1	0.0
C[C@@H]1CN([C@@H](C)CO)C(=O)c2cc(NS(=O)(=O)c3ccccc3)ccc2O[C@H]1CN(C)Cc1ccc(-c2ccccc2)cc1	-1.5
Cc1ccc(S(=O)(=O)N(C)C[C@H]2Oc3c(NC(=O)Nc4ccccc4)cccc3C(=O)N([C@H](C)CO)C[C@@H]2C)cc1	0.4
C[C@@H]1CN([C@@H](C)CO)C(=O)c2cc(NC(=O)C3CCCCC3)ccc2O[C@@H](C)CCCCO[C@H]1CN(C)C(=O)C1CCCCC1	0.7
C[C@H]1CN([C@@H](C)CO)C(=O)c2cccc(NC(=O)C3CCCCC3)c2O[C@H]1CN(C)CC1CCCCC1	-1.0
C[C@H]1CN([C@@H](C)CO)C(=O)c2cc(NC(=O)CCCCCC(=O)Nc3ccccc3N)ccc2O[C@@H]1CN(C)S(=O)(=O)c1ccc(F)cc1	-0.8
C[C@@H]1CN([C@@H](C)CO)C(=O)CCCn2nncc2CO[C@@H]1CN(C)Cc1cccc(C(=O)O)c1	1.0
COc1ccc(NC(=O)Nc2ccc3c(c2)C(=O)N([C@H](C)CO)C[C@H](C)[C@H](CN(C)Cc2ccc(-c4ccccc4)cc2)O3)cc1	-0.1
C[C@@H]1CN([C@H](C)CO)C(=O)Cc2cc(NS(C)(=O)=O)ccc2O[C@@H]1CN(C)C(=O)Nc1ccc(C(F)(F)F)cc1	-0.8
C[C@@H]1CN([C@@H](C)CO)C(=O)c2cc(NC(=O)CCCN(C)C)ccc2O[C@H]1CN(C)S(=O)(=O)c1ccc(Cl)cc1	-0.5
COc1ccc(S(=O)(=O)Nc2ccc3c(c2)C(=O)N([C@@H](C)CO)C[C@@H](C)[C@@H](CN(C)C(=O)Nc2cccc4ccccc24)O3)cc1	-0.5
C[C@H](CO)N1C[C@H](C)[C@H](CN(C)S(C)(=O)=O)OCCCC[C@H](C)Oc2ccc(NC(=O)Cc3ccccc3)cc2C1=O	-0.8
C[C@H]1CN([C@@H](C)CO)C(=O)Cc2cc(NC(=O)Nc3ccc4c(c3)OCO4)ccc2O[C@@H]1CN(C)C(=O)Nc1cccc2ccccc12	-0.7
Cc1ccc(S(=O)(=O)Nc2ccc3c(c2)C(=O)N([C@@H](C)CO)C[C@@H](C)[C@H](CN(C)S(=O)(=O)c2cccs2)OCCCC[C@H](C)O3)cc1	-0.8
C[C@H]1CN([C@@H](C)CO)C(=O)c2cccc(NC(=O)Nc3ccc(F)cc3)c2O[C@H]1CN(C)S(=O)(=O)c1cn(C)cn1	0.2
C[C@@H]1CN([C@@H](C)CO)C(=O)CCCn2cc(nn2)CO[C@H]1CN(C)S(=O)(=O)c1ccc(Oc2ccccc2)cc1	-0.8

Among those listed so far, these have two or more sulfur atoms.
SMILES	A1 apoptosis 2
C[C@@H]1CCCCO[C@H](CN(C)S(=O)(=O)c2cccs2)[C@H](C)CN([C@H](C)CO)C(=O)c2cc(NS(=O)(=O)c3ccccc3)ccc2O1	-0.5
Cc1ccc(S(=O)(=O)Nc2ccc3c(c2)C(=O)N([C@@H](C)CO)C[C@@H](C)[C@H](CN(C)S(=O)(=O)c2cccs2)OCCCC[C@H](C)O3)cc1	-0.8

Reformatted in CSV form: two of the compounds above
Compound,A1 apoptosis 2
C[C@@H]1CN([C@@H](C)CO)C(=O)c2cc(NC(=O)CCCN(C)C)ccc2O[C@H]1CN(C)S(=O)(=O)c1ccc(Cl)cc1,-0.5
COc1ccc(S(=O)(=O)Nc2ccc3c(c2)C(=O)N([C@@H](C)CO)C[C@@H](C)[C@@H](CN(C)C(=O)Nc2cccc4ccccc24)O3)cc1,-0.5

Later entries.
SMILES	A1 apoptosis 2
Cc1ccc(S(=O)(=O)N(C)C[C@@H]2OCCCC[C@H](C)Oc3ccc(NS(C)(=O)=O)cc3C(=O)N([C@@H](C)CO)C[C@H]2C)cc1	0.1
C[C@H](CO)N1C[C@H](C)[C@H](CN(C)S(C)(=O)=O)OCCCC[C@H](C)Oc2ccc(NS(=O)(=O)c3cccs3)cc2C1=O	-0.8
C[C@H]1CN([C@@H](C)CO)C(=O)Cc2cc(NC(=O)NC3CCCCC3)ccc2O[C@H]1CN(C)C(=O)Nc1ccc(C(F)(F)F)cc1	1.4
C[C@@H]1CN([C@H](C)CO)C(=O)c2cc(NS(C)(=O)=O)ccc2O[C@@H](C)CCCCO[C@H]1CN(C)Cc1ccccc1	1.1
C[C@@H]1CN([C@@H](C)CO)C(=O)c2cccc(NC(=O)Nc3ccc(F)cc3)c2O[C@H]1CN(C)S(=O)(=O)c1ccc(F)cc1	0.7
C[C@@H]1CN([C@H](C)CO)C(=O)c2cccc(NC(=O)Nc3ccc(C(F)(F)F)cc3)c2O[C@H]1CN(C)S(=O)(=O)c1cccs1	0.5
C[C@H](CO)N1C[C@H](C)[C@H](CN(C)Cc2ccc3c(c2)OCO3)Oc2c(NC(=O)Nc3cccc4ccccc34)cccc2C1=O	-0.2
Cc1noc(C)c1NC(=O)Nc1ccc2c(c1)CC(=O)N([C@@H](C)CO)C[C@H](C)[C@@H](CN(C)C(=O)NC1CCCCC1)O2	-0.4
CNC[C@H]1Oc2ccc(NC(=O)CCN3CCOCC3)cc2C(=O)N([C@H](C)CO)C[C@@H]1C	0.9
C[C@H]1CN([C@@H](C)CO)C(=O)CCCn2cc(nn2)CO[C@@H]1CN(C)C(=O)NC1CCCCC1	-0.9
C[C@@H]1CN([C@@H](C)CO)C(=O)Cc2cc(NS(=O)(=O)c3cccs3)ccc2O[C@@H]1CN(C)S(C)(=O)=O	1.1
C[C@H]1CN([C@@H](C)CO)C(=O)Cc2cc(NS(=O)(=O)c3ccc(Cl)cc3)ccc2O[C@@H]1CN(C)C(=O)Nc1cccc2ccccc12	-0.5
CC(C)NC(=O)N(C)C[C@H]1OCCCC[C@@H](C)Oc2ccc(NC(=O)Nc3ccc(F)cc3)cc2C(=O)N([C@@H](C)CO)C[C@H]1C	0.0
C[C@H](CO)N1C[C@H](C)[C@H](CN(C)C(=O)Nc2ccc3c(c2)OCO3)Oc2c(NS(=O)(=O)c3ccccc3)cccc2C1=O	1.0
C[C@H](CO)N1C[C@H](C)[C@@H](CN(C)Cc2ccc(C(F)(F)F)cc2)Oc2ccc(NS(=O)(=O)c3ccc(Cl)cc3)cc2CC1=O	-0.4
C[C@@H]1CN([C@@H](C)CO)C(=O)c2cc(NC(=O)Nc3ccccc3)ccc2O[C@@H]1CN(C)CC1CCCCC1	1.8
C[C@@H]1CCCCO[C@@H](CN(C)C(=O)C2CCCCC2)[C@@H](C)CN([C@H](C)CO)C(=O)c2cc(NC(=O)NC3CCCCC3)ccc2O1	1.2
C[C@@H]1CN([C@@H](C)CO)C(=O)c2cccc(NC(=O)NC3CCCCC3)c2O[C@H]1CN(C)S(=O)(=O)c1cn(C)cn1	0.8
Cc1noc(C)c1S(=O)(=O)N(C)C[C@@H]1Oc2ccc(NC(=O)Cc3ccccc3)cc2CC(=O)N([C@H](C)CO)C[C@@H]1C	0.7
Cc1ccc(S(=O)(=O)Nc2cccc3c2O[C@H](CN(C)Cc2ccc4c(c2)OCO4)[C@H](C)CN([C@H](C)CO)C3=O)cc1	-0.1
C[C@H]1CN([C@@H](C)CO)C(=O)Cc2cc(NS(=O)(=O)c3cn(C)cn3)ccc2O[C@H]1CN(C)S(=O)(=O)c1cccs1	-0.1
C[C@@H]1CCCCO[C@H](CN(C)Cc2ccc3c(c2)OCO3)[C@H](C)CN([C@H](C)CO)C(=O)c2cc(NS(=O)(=O)c3ccc(F)cc3)ccc2O1	-0.3
C[C@@H]1CN([C@H](C)CO)C(=O)c2cccc(NC(=O)c3nc4ccccc4s3)c2O[C@@H]1CN(C)S(=O)(=O)c1ccc(Cl)cc1	0.2
C[C@@H]1CN([C@H](C)CO)C(=O)c2cc(NC(=O)Nc3cccc4ccccc34)ccc2O[C@@H]1CN(C)Cc1ccc(C(F)(F)F)cc1	0.0
Cc1noc(C)c1S(=O)(=O)Nc1ccc2c(c1)C(=O)N([C@@H](C)CO)C[C@H](C)[C@H](CN(C)C(=O)c1ccncc1)OCCCC[C@H](C)O2	-0.4
C[C@H]1CN([C@@H](C)CO)C(=O)Cc2cc(NC(=O)Nc3ccc4c(c3)OCO4)ccc2O[C@@H]1CN(C)Cc1ccc(C(F)(F)F)cc1	0.0
C[C@H](CO)N1C[C@H](C)[C@@H](CN(C)C(=O)Nc2cccc3ccccc23)Oc2ccc(NC(=O)CCN3CCOCC3)cc2CC1=O	-1.3
Cc1noc(C)c1S(=O)(=O)N(C)C[C@@H]1OCCCC[C@@H](C)Oc2ccc(NS(=O)(=O)c3ccc(F)cc3)cc2C(=O)N([C@@H](C)CO)C[C@@H]1C	1.4
Cc1ccc(S(=O)(=O)Nc2cccc3c2O[C@@H](CN(C)C(=O)NC(C)C)[C@@H](C)CN([C@@H](C)CO)C3=O)cc1	-0.2
O=C(CCCCCC(=O)N/N=C/c1ccc[nH]1)NO	-0.6
C[C@@H]1CN([C@@H](C)CO)C(=O)c2cccc(NC(=O)Nc3cccc4ccccc34)c2O[C@H]1CN(C)CC1CC1	-0.7
COc1ccc(NC(=O)Nc2ccc3c(c2)C(=O)N([C@@H](C)CO)C[C@@H](C)[C@@H](CN(C)Cc2ccccc2)OCCCC[C@@H](C)O3)cc1	-0.2
C[C@@H]1CCCCO[C@@H](CN(C)CC2CC2)[C@@H](C)CN([C@H](C)CO)C(=O)c2cc(NS(=O)(=O)c3ccc(F)cc3)ccc2O1	-0.1

Compounds from the list above that have a COOH group (two):
SMILES	A1 apoptosis 2
C[C@@H]1CN([C@@H](C)CO)C(=O)c2cc(NC(=O)Nc3ccc4c(c3)OCO4)ccc2O[C@H]1CN(C)Cc1ccc(C(=O)O)cc1	0.4
C[C@@H]1CN([C@@H](C)CO)C(=O)CCCn2nncc2CO[C@@H]1CN(C)Cc1cccc(C(=O)O)c1	1.0
